MITF inhib – inhibitors of MITF, primary screen, MITF inhibitor project, cell-based, luminescence; TRPM1 promoter luciferase, 24 h; inhibition, % (no concentration beside the values); 37,000 tested, 0.28% active; AID 2240, 2010;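 active = most replicates at 85% or more, or half of them and the mean; inconclusive = half reach 85% but not the mean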;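 also: human melanocyte line stably carrying TRPM1 promoter luciferase reporter; 0% = vehicle wells and 100% = a positive control; the first replicate is given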
Hedgehog inh – Hedgehog pathway signaling inhibitors, primary screen, luminescence, Shh-LIGHT2 cells, Gli-luciferase. Shh-LIGHT2 Gli-luciferase reporter, 30 h. AID 2313, 2010. 22,000 tested, 2.1% active. inhibition, % (no concentration beside the values);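 active = replicate mean of 65% or more; inconclusive = mean lower but half the replicates past it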;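 also: pathway switched on by Shh-conditioned medium diluted 1 in 25 in low serum; 100 nL library stock added to about 40 µL; 0% = median of neutral wells and 100% = positive control level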
YB-1 expr inh – inhibitors of YB-1 gene expression, primary screen, cell-based, fluorescence. U2OS, qRT-PCR YB-1 vs CDIP delta delta Cp, 16 h; stronger effect = higher value; zero = DMSO, each unit about twofold. delta delta Cp (YB-1 minus CDIP) (no concentration beside the values). 30,000 tested, 0.37% active. AID 434959, 2010;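 active = delta delta Cp rounded down to an integer at or above 3, about 3 SD of DMSO wells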;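 also: higher means less YB-1 transcript or more CDIP transcript relative to DMSO; stock transfer was 100 nL into about 100 µL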
PD-1 reverse act – activators reversing PD-1 mediated T-cell inhibition, primary screen, luminescence, primary human CD4 T cells, PD-L1 beads | 29,000 tested, under 10 active | CellTiter-Glo 96 h | activation, % (no concentration beside the values) | AID 2316, 2010;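 active = replicate mean of 50% or more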;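 also: 0% = median vehicle wells and 100% = positive control; 100 nL library stock added to about 50 µL; numbers are from one replicate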
The depositor's hits bear a star; ? = inconclusive; / = not tested or not shown.

SMILES	MITF inhib	Hedgehog inh	YB-1 expr inh	PD-1 reverse act
C[C@@H]1CCCCO[C@H](CN(C)Cc2ccncc2)[C@@H](C)CN([C@H](C)CO)C(=O)c2cc(NC(=O)CCCN(C)C)ccc2O1	-9	-34	0.17	1.0
Cc1noc(C)c1NC(=O)Nc1ccc2c(c1)C(=O)N([C@H](C)CO)C[C@H](C)[C@H](CN(C)C(=O)Nc1cccc3ccccc13)O2	-1	-4	-0.18	1.0
Cc1noc(C)c1S(=O)(=O)N(C)C[C@H]1Oc2ccc(NC(=O)CCN3CCOCC3)cc2CC(=O)N([C@H](C)CO)C[C@H]1C	11	-3	0.081	/
C[C@H](CO)N1C[C@H](C)[C@@H](CN(C)Cc2ccncc2)Oc2c(NC(=O)Nc3ccc4c(c3)OCO4)cccc2C1=O	1	-21	-0.43	-0.3
Cc1cc(O)cc(=O)o1	-19	-24	0.034	/
OCCN1CCN(CC/C=C2/c3ccccc3Sc3ccc(C(F)(F)F)cc32)CC1	-46	?	0.01	/
C[C@@H]1CCCCO[C@@H](CN(C)CC2CCCCC2)[C@@H](C)CN([C@H](C)CO)C(=O)c2cc(NC(=O)Nc3cccc4ccccc34)ccc2O1	-20	-10	-0.33	-11
C[C@H](CO)N1C[C@H](C)[C@@H](CN(C)C(=O)Nc2cccc3ccccc23)Oc2c(NC(=O)Nc3ccc4c(c3)OCO4)cccc2C1=O	-16	-40	0.2	-0.7
C[C@@H]1CN([C@H](C)CO)C(=O)c2cccc(NC(=O)Nc3ccc(F)cc3)c2O[C@@H]1CN(C)S(C)(=O)=O	-8	15	-0.1	0.0
Cn1c(SCC(=O)Nc2ccccc2C(F)(F)F)nnc1-c1ccc(F)cc1	-16	/	/	3.1
COc1ccc(-c2cc(=O)oc3cc(OC(C(=O)O)c4ccccc4)ccc23)cc1 (stereo unspecified)	-8	/	/	1.6
COc1ccc(S(=O)(=O)N(C)C[C@@H]2Oc3ccc(NS(=O)(=O)c4ccccc4)cc3C(=O)N([C@H](C)CO)C[C@@H]2C)cc1	-21	-19	0.25	-3.9
CS(=O)(=O)c1ccc(C2=C(c3ccccc3)C(=O)OC2)cc1	8	-83	0.35	/
COc1ccc(NC(=S)NCCn2cc(Br)cn2)cc1OC	-7	/	/	1.4
C[C@@H]1CN([C@H](C)CO)C(=O)c2cc(NC(=O)CCCN(C)C)ccc2O[C@H]1CN(C)Cc1ccccc1	5	-2	-0.064	-0.3
C[C@@H]1CN([C@H](C)CO)C(=O)c2cc(NC(=O)Nc3ccc(C(F)(F)F)cc3)ccc2O[C@@H]1CN(C)S(=O)(=O)c1cn(C)cn1	-15	-2	-0.19	-1.5
C[C@@H]1CN([C@H](C)CO)C(=O)c2cc(NC(=O)Nc3cccc4ccccc34)ccc2O[C@H]1CN(C)C(=O)Nc1cccc2ccccc12	10	/	0.04	/
C[C@H]1CN([C@@H](C)CO)C(=O)c2cccc(NC(=O)c3nc4ccccc4s3)c2O[C@@H]1CN(C)C(=O)Nc1cccc2ccccc12	6	20	0.27	/
C[C@@H]1CN([C@@H](C)CO)C(=O)c2cc(NC(=O)Nc3ccc(C(F)(F)F)cc3)ccc2O[C@H]1CN(C)Cc1ccc(-c2ccccc2)cc1	-11	-4	-0.23	/
C[C@@H]1CN([C@@H](C)CO)C(=O)c2cc(NS(=O)(=O)c3ccc(Cl)cc3)ccc2O[C@@H]1CN(C)Cc1ccc(C(F)(F)F)cc1	38	29	0.18	-1.6
COc1ccccc1NC(=O)CSc1nnc(-c2ccc([N+](=O)[O-])cc2)n1-c1ccccc1	26	/	/	-1.5
CC(C)NC(=O)Nc1ccc2c(c1)C(=O)N([C@@H](C)CO)C[C@H](C)[C@@H](CN(C)CC1CCCCC1)O2	1	-25	0.26	1.5
CCOC(=O)c1c(NC(=O)C2CC(Cl)=CCC2C(=O)O)sc2c1CC(C)CC2 (stereo unspecified)	-8	/	/	1.5
COc1cccc2sc(=NC(=O)CC34CC5CC(CC(C5)C3)C4)n(C)c12	-14	/	-0.32	1.7
C[C@@H]1CN([C@H](C)CO)C(=O)c2cccc(NC(=O)c3nc4ccccc4s3)c2O[C@H]1CN(C)Cc1ccccc1	26	18	0.41	-1.5
C[C@@H]1CN([C@H](C)CO)C(=O)c2cc(NC(=O)Nc3ccccc3)ccc2O[C@H]1CN(C)Cc1ccc(Cl)c(Cl)c1	12	3	0.45	1.5
C[C@H](CO)N1C[C@H](C)[C@@H](CN(C)Cc2ccccc2)Oc2c(NC(=O)c3ccc(-c4nccs4)cc3)cccc2C1=O	21	42	0.76	-4.3
CCOc1ccc2c(c1)SC(CC(=O)Nc1ccccc1[N+](=O)[O-])C(=O)N2 (stereo unspecified)	-4	/	/	-1.6
C=CCc1c(C)nc(OCC(=O)OCC)c(C#N)c1C	-18	17	-11	2.2
COc1ccc(NC(=O)Nc2ccc3c(c2)CC(=O)N([C@H](C)CO)C[C@@H](C)[C@@H](CN(C)S(=O)(=O)c2cccs2)O3)cc1	-5	3	-0.26	/
COc1ccc(NC(=O)Nc2ccc3c(c2)C(=O)N([C@@H](C)CO)C[C@H](C)[C@@H](CN(C)Cc2ccc(C(F)(F)F)cc2)O3)cc1	-3	-8	0.11	-0.3
COC(=O)c1c(NC(=O)C2C3C=CC(C3)C2C(=O)O)sc(C)c1C (stereo unspecified)	-10	/	/	1.4
C[C@H](CO)N1C[C@H](C)[C@H](CN(C)S(=O)(=O)c2ccccc2)Oc2ccc(NC(=O)CCCCCC(=O)Nc3ccccc3N)cc2CC1=O	-34	/	0.51	1.2
COc1ccccc1NC(=O)C1=C(C)Nc2ncnn2C1c1ccccc1OCc1ccccc1 (stereo unspecified)	-6	/	/	-1.4
C[C@H](CO)N1C[C@H](C)[C@@H](CN(C)CC2CCCCC2)Oc2ccc(NS(=O)(=O)c3ccc(F)cc3)cc2C1=O	-5	-14	-0.06	-0.1
C[C@@H]1CN([C@H](C)CO)C(=O)c2cc(NC(=O)CCN3CCOCC3)ccc2O[C@@H]1CN(C)Cc1ccc(C(=O)Nc2ccccc2N)cc1	-21	/	-0.067	-0.8
COc1ccc(CN(C)C[C@H]2Oc3ccc(NC(=O)C4CCCCC4)cc3CC(=O)N([C@@H](C)CO)C[C@@H]2C)cc1	-2	4	0.047	/
C[C@H]1CN([C@@H](C)CO)C(=O)Cc2cc(NS(C)(=O)=O)ccc2O[C@@H]1CN(C)S(=O)(=O)c1ccccc1	1	5	0.0081	-1.0
Nc1cc(OC(=O)c2ccccc2)nn1S(=O)(=O)c1ccccc1	-28	40	0.18	-0.1
Cc1cc(N)nc(COc2ccc([N+](=O)[O-])cc2)n1	-40	/	/	0.1
C[C@H](CO)N1C[C@H](C)[C@@H](CN(C)Cc2ccccc2)Oc2c(NC(=O)C3CC3)cccc2C1=O	-21	31	-0.63	-2.0
CSc1ccccc1C(=O)Nc1ccccc1C(=O)NCc1ccco1	-10	/	/	1.8
CCOc1ccccc1OCC(=O)Nc1cccc([N+](=O)[O-])c1	-79	/	/	-3.1
Cc1noc(C)c1S(=O)(=O)N(C)C[C@H]1OCCCC[C@@H](C)Oc2ccc(NC(=O)Nc3cccc4ccccc34)cc2C(=O)N([C@H](C)CO)C[C@@H]1C	-15	/	-0.12	/
CCOC(=O)c1c(NC(=S)Nc2cnccn2)sc(C)c1-c1ccccc1	-34	/	/	1.9
C[C@H](CO)N1C[C@H](C)[C@H](CN(C)S(C)(=O)=O)Oc2c(NS(C)(=O)=O)cccc2C1=O	-1	-22	-0.44	2.8
C=C1C2CCC3C(CCC4[C@]3(C)CCC[C@]4(C)C(=O)O)(C2)C1OC(=O)/C(C)=C\C (stereo partly specified)	/	-21	0.19	/
C[C@@H]1CN([C@H](C)CO)C(=O)Cc2cc(NS(=O)(=O)c3ccc(Cl)cc3)ccc2O[C@H]1CN(C)CC1CCCCC1	5	-58	-0.2	-0.8
C/C=C(/C)C(=O)OC(COc1c2ccoc2c(OC)c2oc(=O)ccc12)C(C)(C)O (stereo unspecified)	-6	-4	0.041	-1.5
C[C@@H]1CN([C@H](C)CO)C(=O)c2cccc(NC(=O)C3CCOCC3)c2O[C@H]1CN(C)S(=O)(=O)c1cccs1	-6	-11	-0.23	1.7
C[C@@H]1CN([C@@H](C)CO)C(=O)c2cccc(NC(=O)c3ccncc3)c2O[C@@H]1CN(C)S(=O)(=O)c1cccs1	-71	35	0.77	2.4
C[C@H]1CN([C@@H](C)CO)C(=O)Cc2cc(NC(=O)Cn3cnnn3)ccc2O[C@H]1CN(C)Cc1ccc(C(=O)O)cc1	-3	-7	-0.0059	2.0
Cc1ccc(N(C(C)C(=O)NC2CCCCC2)S(C)(=O)=O)cc1C (stereo unspecified)	6	/	/	0.2
C[C@@H]1CN([C@@H](C)CO)C(=O)c2cc(NS(=O)(=O)c3cn(C)cn3)ccc2O[C@@H]1CN(C)CC1CCCCC1	4	/	0.59	1.9
COc1ccc(NC(=O)N(C)C[C@H]2Oc3c(NS(=O)(=O)c4ccccc4)cccc3C(=O)N([C@H](C)CO)C[C@H]2C)cc1	7	-20	-0.0079	0.4
COc1ccc(S(=O)(=O)Nc2cccc3c2O[C@@H](CN(C)S(=O)(=O)c2ccc(Cl)cc2)[C@H](C)CN([C@H](C)CO)C3=O)cc1	0	12	0.14	/
NCc1ccccc1CC(=O)N[C@@H]1C(=O)N2C(C(=O)O)=C(CSc3nnnn3CC(=O)O)CS[C@H]12	18	-50	0.094	/
COc1cc2c(cc1NC(=O)COc1ccc(Br)cc1C)oc1ccccc12	0	/	/	4.5
O=S(=O)(Nc1cccnc1)c1cccc(S(=O)(=O)c2ccc(Cl)c(Cl)c2)c1	1	/	/	1.1
CC(C)=CCc1c(O)cc(O)c2c1OC(c1ccc(O)c(O)c1)CC2=O (stereo unspecified)	/	33	0.43	/

Some of the entries so far, as a markdown table.
| canonical_smiles | MITF inhib | Hedgehog inh | YB-1 expr inh | PD-1 reverse act |
| --- | --- | --- | --- | --- |
| C[C@@H]1CN([C@H](C)CO)C(=O)c2cc(NC(=O)Nc3ccccc3)ccc2O[C@H]1CN(C)Cc1ccc(Cl)c(Cl)c1 | 12 | 3 | 0.45 | 1.5 |
| C[C@H](CO)N1C[C@H](C)[C@@H](CN(C)Cc2ccccc2)Oc2c(NC(=O)c3ccc(-c4nccs4)cc3)cccc2C1=O | 21 | 42 | 0.76 | -4.3 |
| CCOc1ccc2c(c1)SC(CC(=O)Nc1ccccc1[N+](=O)[O-])C(=O)N2 (stereo unspecified) | -4 | / | / | -1.6 |
| C=CCc1c(C)nc(OCC(=O)OCC)c(C#N)c1C | -18 | 17 | -11 | 2.2 |
| COc1ccc(NC(=O)Nc2ccc3c(c2)CC(=O)N([C@H](C)CO)C[C@@H](C)[C@@H](CN(C)S(=O)(=O)c2cccs2)O3)cc1 | -5 | 3 | -0.26 | / |

Single records, as listed above. Order of screens: MITF inhib, Hedgehog inh, YB-1 expr inh, PD-1 reverse act
Cc1ccc(N(C(C)C(=O)NC2CCCCC2)S(C)(=O)=O)cc1C (stereo unspecified) across the screens: 6, /, /, 0.2
CCOc1ccccc1OCC(=O)Nc1cccc([N+](=O)[O-])c1 across the screens: -79, /, /, -3.1

Continuation:
SMILES	MITF inhib	Hedgehog inh	YB-1 expr inh	PD-1 reverse act
CS(=O)(=O)N(CC(=O)Nc1cc(Cl)cc(Cl)c1)c1cccc([N+](=O)[O-])c1	14	/	/	2.7
COc1ccc([N+](=O)[O-])cc1NC(=O)C(C)N1C(=O)C2CC=C(Cl)CC2C1=O (stereo unspecified)	7	/	/	2.3
COc1ccc(S(=O)(=O)N(C)C[C@@H]2Oc3c(NC(=O)c4nc5ccccc5s4)cccc3C(=O)N([C@@H](C)CO)C[C@H]2C)cc1	19	20	-0.13	-0.8
C[C@H]1CN([C@@H](C)CO)C(=O)Cc2cc(NC(=O)Nc3ccc(C(F)(F)F)cc3)ccc2O[C@H]1CN(C)C(=O)Nc1ccccc1	-9	16	0.024	-0.5
COc1ccc(NC(=O)N(C)C[C@@H]2Oc3ccc(NC(=O)c4ccncc4)cc3C(=O)N([C@@H](C)CO)C[C@@H]2C)cc1	-19	/	-0.31	1.2
CC(=O)c1c(C)oc2ccc(N(C(=O)c3ccncc3)S(=O)(=O)c3ccc(F)cc3)cc12	25	/	/	0.3
COc1ccc(Cl)cc1NC(=O)Cn1cnc2sc3c(c2c1=O)CCC(C)C3 (stereo unspecified)	36	/	/	-3.7
C[C@@H]1CCCCO[C@H](CN(C)C(=O)Cc2ccccc2)[C@@H](C)CN([C@H](C)CO)C(=O)c2cc(NC(=O)NC3CCCCC3)ccc2O1	1	-10	0.031	0.7
NS(=O)(=O)c1ccc(CCNc2ncnc3c2c(-c2ccccc2)cn3-c2ccc(F)cc2)cc1	28	/	/	-3.0
CNC[C@H]1Oc2ccc(NC(=O)CCCN(C)C)cc2C(=O)N([C@H](C)CO)C[C@@H]1C	2	1	0.3	0.6
Cc1noc(C)c1NC(=O)Nc1ccc2c(c1)C(=O)N([C@H](C)CO)C[C@H](C)[C@@H](CN(C)C(=O)CCCN(C)C)OCCCC[C@@H](C)O2	1	/	-0.41	/
Nc1nc2c(-c3ccc(Br)cc3)nnn2c2ccccc12	18	-89	-0.088	0.0

Only part of the results is shown. The share of hits here may be higher or lower than overall.
